Screens from PubChem.
INS promoter inh: inhibitors of insulin promoter-driven GFP, primary screen, imaging, TRM-6 cells (human fetal islet line), eGFP reporter, cell count; 130,000 compounds, 0.9% hits; inhibition, % at 2 µM; reporter expression induced with tamoxifen;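 active means inhibition above the mean plus 3 SD, with well images judged a real hit on visual review, cut at about 60% in these data, passing the limit was not always enough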
GALR2 agonist: GALR2 receptor agonists, primary screen, cell-based; GALR2-expressing cells, agonist activation read-out; 140,000 compounds, 0.48% hits; activation, %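 (tested at 5 µM)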;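 active means above mean plus 3 SD of all compounds, about 5% in these data, not always enough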;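 further: 0% = vehicle buffer wells and 100% = reference agonist at full effect; tested in CHO reporter cells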
HSV replic up: enhancers of HSV replication in host cells, fold increase, host cell viability | HSV replication augmentation in cells | maximum fold increase | AID 1956, 2009 | 220,000 compounds, 0.005% hits;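 active means peak rise of 1.5-fold or more in the series; tested in PC3 cells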;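 further: first round at 10 µM; read as green reporter fluorescence; hits show the peak of a series up to 25 µM; 1 = signal of infected wells without compound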
RGS16-Gao: modulators of RGS16 binding to Galphao, primary screen, biochemical, human proteins, multiplexed bead flow cytometry. Regulator of G-protein signaling 16 (Homo sapiens) + Guanine nucleotide-binding protein …. bead-based flow cytometry RGS16-Galphao binding, fluorescence; actives lie on both sides. binding response (% of control), % at 10 µM. 220,000 compounds, 0.38% hits. AID 1441, 2008;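 active means below 25% or above 175%, edge rows of some plates excepted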;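 further: Galphao activated by GDP with aluminum fluoride before binding; 100% = wells without compound and 0% = beads without RGS; some results beyond the cut were filed as inactive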
PKD1 kinase inh: inhibitors of human PKD1 kinase, biochemical, fluorescence polarization; Serine/threonine-protein kinase D1 (Homo sapiens), Q15139; PKD1 kinase fluorescence polarization assay; inhibition, %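 (about 10 µM by stock and volumes)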; 200,000 compounds, 0.056% hits; AID 797, 2007;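 active means inhibition of 50% or more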;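 further: controls were vehicle for no effect and a reference inhibitor for full effect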
Target sequence (Q15139 whole entry, looked up): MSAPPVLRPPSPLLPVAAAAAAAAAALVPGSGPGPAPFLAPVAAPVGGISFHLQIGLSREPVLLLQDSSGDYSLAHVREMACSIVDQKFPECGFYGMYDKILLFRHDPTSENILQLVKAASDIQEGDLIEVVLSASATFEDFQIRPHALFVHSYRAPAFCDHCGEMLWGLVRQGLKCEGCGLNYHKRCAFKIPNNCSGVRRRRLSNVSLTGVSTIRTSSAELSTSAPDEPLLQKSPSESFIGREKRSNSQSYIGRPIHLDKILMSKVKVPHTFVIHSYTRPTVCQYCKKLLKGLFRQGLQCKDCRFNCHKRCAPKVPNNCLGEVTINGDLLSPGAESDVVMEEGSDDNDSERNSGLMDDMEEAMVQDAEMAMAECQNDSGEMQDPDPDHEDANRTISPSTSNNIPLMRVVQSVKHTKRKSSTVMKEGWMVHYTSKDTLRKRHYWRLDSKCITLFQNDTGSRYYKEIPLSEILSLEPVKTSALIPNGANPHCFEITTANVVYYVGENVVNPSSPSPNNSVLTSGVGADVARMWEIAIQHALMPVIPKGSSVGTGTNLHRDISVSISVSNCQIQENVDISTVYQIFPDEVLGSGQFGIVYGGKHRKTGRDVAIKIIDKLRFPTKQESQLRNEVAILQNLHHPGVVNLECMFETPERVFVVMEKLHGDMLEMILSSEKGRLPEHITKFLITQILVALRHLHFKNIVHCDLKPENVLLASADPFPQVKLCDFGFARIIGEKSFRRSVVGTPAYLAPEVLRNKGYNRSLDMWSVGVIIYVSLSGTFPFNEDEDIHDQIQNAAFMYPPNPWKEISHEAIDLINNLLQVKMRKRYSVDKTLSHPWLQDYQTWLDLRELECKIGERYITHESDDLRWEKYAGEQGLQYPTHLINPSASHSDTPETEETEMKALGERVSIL
INS promoter inh cell count: also measured in INS promoter inh; calls as there; normalized cell count, %; measured here: cell count, toxicity; reference of the scale not given here;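 cells exposed to compound for 48 h; stained nuclei by imaging scaled within each plate; lower means fewer cells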
HSV replic up primary fold: further read-out of HSV replic up, marked with its call; fold increase; compound at 10 µM; measured here: primary screen fold increase 10 uM; tested in PC3 cells;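 GFP signal in the first replicate; 1 = infected wells without compound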
* hit, by the source's call; i = inactive; x = not tested or not shown. Hits appear at their usual frequency; any-hit rate near 1.1%.

SMILES	INS promoter inh	INS promoter inh cell count	GALR2 agonist	HSV replic up	HSV replic up primary fold	RGS16-Gao	PKD1 kinase inh
Cc1ccc(SCC(=O)NC(=O)Nc2ccc3c(c2)OCCO3)c(C)c1	x	x	-0.9	i	1.1	97	-10
COc1ccc(-c2nnn(CC(=O)N(Cc3ccc(F)cc3)C(C(=O)NC3CCCC3)c3ccc(F)cc3)n2)cc1 (stereo unspecified)	-25	102	-0.1	i	0.81	x	-1
CCCc1nc2ccccc2c(=O)n1NC(=O)c1c(O)c2ccccc2[nH]c1=O	x	x	-0.9	i	0.93	93	8
COc1ccc(C(CCNCc2ccc(F)cc2)c2ccc(F)cc2)cc1 (stereo unspecified)	x	x	1.2	i	0.47	115	-5
COc1ccc(C2SCCN2C(=S)Nc2cccc(Cl)c2)cc1 (stereo unspecified)	x	x	-0.2	i	0.95	95	-9
Cc1ccc(S(=O)(=O)N2CN(Cc3ccco3)c3nc4ccccc4nc32)cc1	39	44	0.0	i	1.2	102	-8
COc1cc(NC(=S)NC(=O)c2ccccc2F)ccc1NC(=O)c1ccco1	13	91	-1.1	i	0.97	67	-12
CC(=O)c1ccc(NC(=O)c2ccc(CNc3c(N4CCCC4)c(=O)c3=O)cc2)cc1	x	x	x	i	0.92	103	x
COc1ccc(C2(C)NC(=O)N(CC(=O)Nc3ccc(-c4nc5ccc(C)cc5s4)cc3)C2=O)cc1 (stereo unspecified)	x	x	x	i	0.95	100	-3
Cc1cc(O)cc(O[C@H]2OC(CO)[C@H](O)[C@@H](O)[C@H]2O)c1 (stereo partly specified)	14	124	-0.3	i	0.8	108	-14
CCCc1c(C(=O)NNc2ccc(C)cc2)cnn1-c1ccccc1	x	x	x	i	1.1	92	x
O=C1CCCN=C(Nc2ccc(F)c(Cl)c2)S1	x	x	x	i	1	98	x
CCOc1ccccc1N(CC(=O)NCCSc1ccccc1)S(C)(=O)=O	-22	98	x	i	0.94	100	-10
C/C(=N/NC(=O)c1ccc2c(c1)OCO2)c1ccc(Br)s1	13	90	x	i	0.8	102	-1
COCCCN1C(=O)/C(=C\c2ccc3c(c2)OCO3)C(C(=O)OC)=C1C	19	92	x	i	1.1	92	-6
Cc1cccnc1CN1CCN(Cc2nc(Cc3cccc(F)c3)no2)CC1	x	x	x	i	1.2	103	4
CC(=O)Nc1ccc(-c2nn[nH]n2)cc1	x	x	x	i	0.94	95	x
O=[N+]([O-])c1cc(C(F)(F)F)c(Cl)cc1N1CCN(CCO)CC1	x	x	-0.6	i	1.1	99	1
O=C(NCc1cn2ccccc2n1)c1ccccc1	x	x	-0.8	i	0.98	101	-6
Cc1c(NC(=O)CSc2ccccc2F)c(=O)n(-c2ccccc2)n1C	x	x	x	i	1	102	0
O=C(NC1=NCCS1)c1cccc2ccccc12	-35	109	x	i	1.2	100	-8
CC(C)NC(=S)Nc1cccc2cnccc12	3	167	-1.3	i	0.55	94	-7
CN1/C(=C\C(=O)Nc2ccc(Cl)cc2)C(C)(C)c2ccccc21	x	x	0.3	i	1	203	-9
CC1Cn2c(COc3ccccc3)nnc2S1 (stereo unspecified)	x	x	-1.2	i	1.2	101	-22
CC(=O)NC(CC(C)C)C(=O)NC(Cc1ccccc1)C(N)=O (stereo unspecified)	3	108	-1.0	i	0.73	87	-7
O=C(CN1C(=O)C2CCCN2c2ncc(Cl)cc21)NCc1ccc2c(c1)OCO2 (stereo unspecified)	38	103	-2.0	x	x	105	0
Cc1cc(C)n(-c2ccc(C(=O)Nc3ccc(S(=O)(=O)NCc4ccco4)cc3)cc2)n1	29	134	-0.8	i	0.76	102	14
CCC(=O)c1cn(CC(=O)OC)c2ccccc12	41	41	-0.8	i	1	105	-5
COC(=O)CC1COc2ccccc2N1C(=O)c1ccc(Br)cc1 (stereo unspecified)	-73	98	x	i	1	99	0
Nc1nc(NCCCN2CCOCC2)nc(Nc2cccc(F)c2)c1[N+](=O)[O-]	x	x	x	i	0.74	106	x
O=C(CC1COc2ccccc2O1)Nc1ccccn1 (stereo unspecified)	-280	92	-2.1	i	0.98	103	-8
COc1ccc(-c2csc(COC(=O)C(C)(C)C)n2)cc1	x	x	x	i	0.86	89	x
C=CCNC(=O)C(=O)N/N=C/c1cccc(Br)c1	-33	139	x	i	0.86	109	-4
NC(=O)c1ccccc1OCC(=O)Nc1ccc(Cl)c(Cl)c1	x	x	x	i	1	104	x
O=C(N/N=C/c1ccccc1)c1sccc1OCc1ccc(F)cc1	11	84	-0.8	i	0.87	99	2
O=c1c2cnn(-c3ccc(F)cc3)c2ncn1Cc1ccccc1	-362	60	-1.4	i	1.1	106	-3
CCCNC1CCS(=O)(=O)C1 (stereo unspecified)	43	148	-1.1	i	0.93	97	0
Cc1ccc(N/N=C2\COC(C)(C)CC2=O)cc1	-7	68	-0.1	i	1	116	-12
O=C(N/N=C/c1oc(O)c2ccccc12)c1ccccc1O	x	x	x	i	0.98	103	-3
CCOC(=O)CNC(=O)CSc1nc(NCc2ccccc2)nc(N(C)C)n1	-9	93	0.8	i	0.88	104	-2
CCCOc1ccc(N)cc1N	x	x	-2.3	x	x	98	-2
Cc1ccccc1CNC(=O)c1ccccc1	-61	155	-2.2	i	0.76	100	1
Cc1nnc(NC(=O)Cc2ccc(OCc3c(C)noc3C)cc2)s1	-36	129	-1.8	i	0.97	100	4
CCn1c(SCc2c(Cl)cccc2Cl)nnc1-c1nn(-c2ccccc2)ccc1=O	-12	125	-0.2	x	x	102	-8
O=C(C1CCCCC1)N1CCN(C(=O)C2CCCCC2)CC1	x	x	-2.6	i	1	106	-1
CC(/C=N/NC(=O)c1cc(-c2cccs2)[nH]n1)=C\c1ccccc1	x	x	1.0	i	1	105	3
CC(C)(C)C(=O)Cn1ncc(N2CCCC2)c(Br)c1=O	7	133	-1.6	i	0.86	102	-6
CCOc1nc(NCCO)nc(Nc2ccc([N+](=O)[O-])cc2)n1	22	165	-0.4	i	1.1	107	5
O=C(O)/C=C/C(=O)Nc1nccs1	x	x	x	i	1	101	x
CNC(=S)NNC(=O)c1cccn(Cc2ccccc2)c1=O	x	x	x	i	0.99	100	3
O=C(NCC1CC1)Nc1cccs1	x	x	x	i	0.98	99	x
COc1ccc(C2Nc3ccc(Br)cc3C(c3ccccc3)N2CC(=O)O)cc1 (stereo unspecified)	-33	67	x	i	0.98	104	-6
C=CCNC(=O)CSc1nnc(-c2ccccc2Cl)n1-c1c(C)n(C)n(-c2ccccc2)c1=O	-54	42	-2.4	i	0.87	96	3
c1ccc(-c2csc(Nc3ccc4c(c3)OCCO4)n2)cc1	-37	143	-1.6	i	0.89	92	-4
Cc1cc(OCC(=O)N(Cc2ccco2)C2CCS(=O)(=O)C2)cc(C)c1Cl (stereo unspecified)	x	x	x	i	1.1	98	x
CCCCC(CC)C(=O)Nc1ccc(C#N)cc1 (stereo unspecified)	-15	123	-4.4	i	0.83	93	-1
O=C(Cn1cnnn1)Nc1cccc(S(=O)(=O)N2CCCCC2)c1	27	129	x	i	1.1	98	1
CCOC(=O)c1c(C)oc2c1c(C=NCc1ccccn1)c(O)c1ccccc12	x	x	-0.5	x	x	98	-5
COc1ccc2c(c1)c(C(=O)CN1CCc3ccccc3C1)c(C)n2C	x	x	x	i	0.86	95	x
CCCC(=O)Nc1cc(C)c(NC(=O)Cc2ccccc2)cn1	x	x	-0.8	x	x	109	3

4 structures out of the list, arranged by molecular weight, high to low.
SMILES	INS promoter inh	INS promoter inh cell count	GALR2 agonist	HSV replic up	HSV replic up primary fold	RGS16-Gao	PKD1 kinase inh
COc1ccc(-c2nnn(CC(=O)N(Cc3ccc(F)cc3)C(C(=O)NC3CCCC3)c3ccc(F)cc3)n2)cc1 (stereo unspecified)	-25	102	-0.1	i	0.81	x	-1
CCOC(=O)CNC(=O)CSc1nc(NCc2ccccc2)nc(N(C)C)n1	-9	93	0.8	i	0.88	104	-2
O=C(N/N=C/c1ccccc1)c1sccc1OCc1ccc(F)cc1	11	84	-0.8	i	0.87	99	2
CN1/C(=C\C(=O)Nc2ccc(Cl)cc2)C(C)(C)c2ccccc21	x	x	0.3	i	1	203	-9

Later entries:
SMILES	INS promoter inh	INS promoter inh cell count	GALR2 agonist	HSV replic up	HSV replic up primary fold	RGS16-Gao	PKD1 kinase inh
COc1ccc(C)cc1NC(=O)c1cc2c(CO)cnc(C)c2oc1=N	-45	99	-1.1	i	0.99	87	-9
COC(=O)c1c(-c2ccccc2Cl)noc1/C=C/N(C)C	-115	90	x	x	x	104	-7
CCOc1ccc(N(CC(=O)NCc2ccco2)S(C)(=O)=O)cc1	23	93	-2.0	i	0.89	112	-9
CCn1c(COc2ccc(C)cc2)nnc1SCC(=O)Nc1ccc(S(N)(=O)=O)cc1	-43	117	-2.3	i	0.64	103	7
CCCCn1c(SCC(=O)N2CCCC2)nc2c1c(=O)n(C)c(=O)n2C	14	68	-0.6	i	0.85	102	-2
COc1cccc(CN2CCN(C(=O)c3cccc(F)c3)CC2)c1	-11	89	0.1	x	x	x	-5
CN1C(N)=NC(=O)/C1=C/c1ccccc1F	x	x	x	i	1	102	-1
COC(=O)c1ccc(-c2ccc(Cl)cc2)nc1C	17	131	0.6	i	1	104	9
CC(=O)NC(CCS(C)(=O)=O)C(=O)Nc1cccc(C(C)=O)c1 (stereo unspecified)	-436	100	0.8	i	0.77	100	-7
CCc1nnc(NC(=O)c2nc3nc(C)cc(C)n3n2)s1	5	92	-1.2	x	x	102	-1
Cc1cccc(CN2CCN(CC(=O)NCc3cccs3)C2=O)c1	29	131	-0.9	i	0.95	92	-4
Cc1cccc(OCCCC(=O)Nc2ccc3c(c2)OCO3)c1	x	x	-1.1	i	0.82	104	-14
C/C(=N\NC(=S)Nc1ccc(C)cc1)c1cc2ccccc2o1	x	x	x	i	1.2	98	x
O=C(/C=C/c1ccccc1Cl)Nc1cccc(S(=O)(=O)NC2=NCCCCC2)c1	8	87	0.5	i	0.82	106	-8
COC(=O)c1[nH]c2ccccc2c1NC(=O)CN1CC(C)OC(C)C1 (stereo unspecified)	4	118	-3.7	i	0.7	97	8

A different layout for 3 compounds above:
mol | INS promoter inh | INS promoter inh cell count | GALR2 agonist | HSV replic up | HSV replic up primary fold | RGS16-Gao | PKD1 kinase inh
CCc1nnc(NC(=O)c2nc3nc(C)cc(C)n3n2)s1 | 5 | 92 | -1.2 | x | x | 102 | -1
Cc1cccc(CN2CCN(CC(=O)NCc3cccs3)C2=O)c1 | 29 | 131 | -0.9 | i | 0.95 | 92 | -4
Cc1cccc(OCCCC(=O)Nc2ccc3c(c2)OCO3)c1 | x | x | -1.1 | i | 0.82 | 104 | -14

Next compounds follow:
SMILES	INS promoter inh	INS promoter inh cell count	GALR2 agonist	HSV replic up	HSV replic up primary fold	RGS16-Gao	PKD1 kinase inh
O=C(NNc1cc(N2CCOCC2)nc(N2CCOCC2)n1)c1ccc(Cl)c(Cl)c1	x	x	-0.9	i	0.98	108	-4
CC(C)Oc1ccccc1C1CC(=O)Nc2cc3c(cc21)OCCO3 (stereo unspecified)	-87	11	1.9	i	0.64	103	-3
CCOC(=O)/C(=N\Nc1ccccc1Cl)N(C)C1CCS(=O)(=O)C1 (stereo unspecified)	x	x	x	i	0.97	105	1
CCOc1cc(-c2cc(-c3ccc(N)cc3)nc(N)c2C#N)ccc1O	24	126	5.1	i	0.78	98	1
Oc1c(CN2CCOCC2)cc(COCc2ccccc2)c2cccnc12	x	x	-1.8	i	0.82	100	-3
Cc1onc(-c2ccccc2Cl)c1C(=O)NCC1CCCO1 (stereo unspecified)	x	x	-2.1	i	0.76	74	12
COc1ccc(CCNC(=O)CNC(=O)Cn2cnc3sc(C)c(C)c3c2=O)cc1OC	20	100	x	i	1	97	-2
COc1ccccc1C(=O)Nc1nc2cc3c(cc2s1)OCO3	x	x	x	i	0.99	95	x
Cc1nc2ccc(Br)cn2c1C(=O)N/N=C\c1ccccc1[N+](=O)[O-]	x	x	x	i	0.95	104	-7
Cc1sc2ncnc(NCC(C)(C)N3CCOCC3)c2c1C	36	110	-0.4	i	0.84	118	-5
C=C1N(C)c2cc([N+](=O)[O-])c(N)cc2C1(C)C	63	98	x	i	0.87	96	-1
CC(C)CCn1c(N2CCOCC2)nc2c1c(=O)n(CC(N)=O)c(=O)n2C	x	x	-0.9	i	0.98	99	-9
CC(=O)NC(c1cccs1)c1cc([N+](=O)[O-])c2cccnc2c1O (stereo unspecified)	x	x	-1.5	i	0.73	90	-5
O=NN(CCc1ccncc1)c1ccc(OCc2ccccc2)cc1	-8	114	x	i	1	106	1
